# Calb FLC: C. albicans growth modulation with fluconazole | AID 1979 | C. albicans CaCi-2 (fluconazole-resistant clinical isolate) + fluconazole, Alamar Blue growth, 48 h | growth inhibition, % (no concentration beside the values) | 300,000 compounds, 0.57% hits;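 active = most replicates above 75%; inconclusive = exactly half above 75%; inactive = most below 75%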;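 also: all wells also contain fluconazole at 8 µg/ml as a sub-toxic cotreatment; 0% = median of DMSO wells and 100% = median of geldanamycin control wells; wells of about 8 µL received 7.5 nL stock; the first replicate is given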
# LANA-H2A inh: blocks KSHV LANA binding to histone H2A/H2B; cell-free LANA-H2A/H2B peptide, fluorescence polarization; inhibition, % (no concentration beside the values); 320,000 compounds, 0.6% hits; in the data active = inhibition mostly above about 10%, no sharp cut-off; inactive = mostly below about 6.7%;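 also: stock transfer was 7.5 nL into about 10 µL; 0% = median of vehicle wells and 100% = median of positive control wells; one replicate is shown; the record names a cut of 25% in any replicate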
# T cruzi inh: T. cruzi replication inhibition | T. cruzi beta-gal in NIH3T3, luminescence, 90 h | inhibition, % (test concentration not listed) | 300,000 compounds, 1.4% hits | AID 1885;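 active = mean inhibition across valid replicates above about 55%, limit read from the data; inconclusive = mean below that limit but half or more replicates reach it; inactive = mean below it, under half of replicates reach it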;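 also: signal also drops with host cell toxicity which is not excluded here; 0% = plate median of DMSO wells and 100% = zero luminescence signal; higher percent means less beta-gal luminescence so fewer parasites; stock transfer was 50 nL into about 50 µL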
# RanGTP-Imp inh: inhibitors of RanGTP-importin-beta interaction, primary screen, biochemical, FRET, CFP-Ran, YFP-importin-beta, homogeneous; 300,000 compounds, 1.1% hits; cell-free CFP-Ran/YFP-importin-beta FRET ratio; inhibition, % (no concentration beside the values); AID 2216;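 active = most replicates above 15%; inconclusive = exactly half above 15%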;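 also: 0% = DMSO wells and 100% = Ran loaded with GDP instead of GTP; wells of about 40 µL received 100 nL stock; the first replicate is given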
# Beta apoptosis: beta cell apoptosis inhibition; INS-1E cytokine-induced death, ATP luminescence, 48 h; percent of positive-control rescue, neutral wells zero; protection from apoptosis, % (concentration not given with the values); 300,000 compounds, 0.8% hits;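 active = all replicates at 75% or more, or half of them and the mean; inconclusive = half reach 75% but not the mean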;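 also: 0% = cytokine-treated negative control wells and 100% = positive control rescue; higher means more ATP so stronger rescue from cytokine killing; wells of about 40 µL received 100 nL stock; the first replicate is given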
# Bfl-1 A1 inh: inhibitors of the anti-apoptotic protein A1, read as caspase activation; AID 2462; 330,000 compounds, 0.066% hits; caspase activation, % (no concentration beside the values); MEF A1-2A-BIM cells, Caspase-Glo 3/7 luminescence, 3 h; percent of clofoctol response, vehicle zero;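 active = over half of replicate activation scores above 10%, or exactly half above 10 with the replicate mean above 10; inconclusive = replicate mean below 10 yet half the replicates above 10; inactive = over half of replicates below 10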;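 also: wells of about 30 µL received 50 nL stock; many hits fall short of the cut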
# Beta2AR agonist: human beta-2 adrenergic receptor agonism by FAP; P07550; Am2.2-beta2AR cells, FAP receptor internalization, flow cytometry; reference of the scale not given here; response, % (test concentration not listed); 340,000 compounds, 0.43% hits; AID 504454;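 active = response above a set limit, near 3 SD of response in nonfluorescent compounds, cut at about 42% in these data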;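 also: stock transfer was 100 nL into about 11 µL; a reference agonist was the positive control; negative values mostly stem from fluorescent compounds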
# Target sequence (P07550 whole entry, looked up): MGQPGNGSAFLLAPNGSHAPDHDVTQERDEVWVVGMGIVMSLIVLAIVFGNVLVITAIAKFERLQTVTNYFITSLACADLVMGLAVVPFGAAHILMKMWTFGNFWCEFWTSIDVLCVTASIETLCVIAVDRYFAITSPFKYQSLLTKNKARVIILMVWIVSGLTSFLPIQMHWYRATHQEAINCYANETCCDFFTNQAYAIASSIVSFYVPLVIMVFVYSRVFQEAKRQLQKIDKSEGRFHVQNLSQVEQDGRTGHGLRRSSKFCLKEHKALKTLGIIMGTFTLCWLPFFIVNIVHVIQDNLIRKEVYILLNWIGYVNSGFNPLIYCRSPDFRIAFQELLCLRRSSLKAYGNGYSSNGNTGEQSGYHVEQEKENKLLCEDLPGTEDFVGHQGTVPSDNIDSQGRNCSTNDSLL
# UCH37 inh: inhibitors of human deubiquitinating enzyme UCH37 | Q9Y5K5 | purified proteasome/UCH37, Ub-AMC cleavage fluorescence | inhibition, % (test concentration not listed) | 330,000 compounds, 0.33% hits | AID 588478;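 active = mean of two replicates above 20%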;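 also: 0% = compound-free wells with enzyme and 100% = wells lacking proteasome; stock transfer was 100 nL into about 20 µL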
# Target sequence (Q9Y5K5 whole entry, looked up): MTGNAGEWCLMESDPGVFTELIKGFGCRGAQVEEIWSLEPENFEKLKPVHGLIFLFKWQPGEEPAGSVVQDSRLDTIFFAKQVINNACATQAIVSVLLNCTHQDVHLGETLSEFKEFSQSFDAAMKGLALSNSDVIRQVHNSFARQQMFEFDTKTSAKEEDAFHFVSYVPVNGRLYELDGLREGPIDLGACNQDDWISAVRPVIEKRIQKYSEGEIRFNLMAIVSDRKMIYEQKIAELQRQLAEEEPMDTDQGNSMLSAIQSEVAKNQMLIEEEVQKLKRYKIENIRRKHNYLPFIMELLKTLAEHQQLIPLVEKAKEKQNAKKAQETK
#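 Material: Human UCH37 enzyme supplied as purified proteasome complex | Schedule: 30 min preincubation with enzyme, 25 min cleavage at room temperature | Detection: AMC fluorescence 355/460 nm | Measure: % inhibition of Ub-AMC cleavage fluorescence | Controls: Wells without proteasome as full block, compound-free enzyme plus substrate as uninhibited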
# Active calls of the source: *; i = inactive; ? = inconclusive; . = not tested or not shown. An unsorted share of the library. Share with any hit: about 4.3%.
SMILES,Calb FLC,LANA-H2A inh,T cruzi inh,RanGTP-Imp inh,Beta apoptosis,Bfl-1 A1 inh,Beta2AR agonist,UCH37 inh
COc1ccc(OC)c(S(=O)(=O)N2C(C)CCCC2C)c1 (stereo not given),0,1.5,4,-2.0,0,0.7,1,1.3
CCOCCCN(C)C1CCN(C(=O)c2oc3ccccc3c2NC(=O)c2ccc([N+](=O)[O-])cc2)CC1,-2,2.6,-12,1.1,1,-0.4,9,4.6
COc1ccc(NC(=S)NC(=O)/C=C/c2ccccc2)cc1,3,-4.3,-6,0.0,4,0.1,-6,5.7
COc1ccc2ccccc2c1CNC(=O)CC1C(=O)NCCN1CC(C)(C)C (stereo not given),-1,-0.5,-5,3.6,-4,-0.6,-5,2.3
CCn1ncc(C(=O)Nc2cccc(Cl)c2)c1C,-37,-1.2,-17,1.0,5,-4.7,8,-24
COc1cccc(/C=N/NC(=O)CCn2c3ccccc3c3ccccc32)c1,-12,-1.0,0,0.0,-2,-0.3,0,.
Cc1ccccc1NC(=S)NC(=O)c1cncc(Br)c1,?,-1.6,2,0.7,-14,-0.8,-4,1.0
COc1ccc(N2CCN(C(=O)COC(=O)CNC(=O)c3ccc(C)cc3)CC2)cc1,5,0.1,10,7.9,-12,-1.2,5,.
COCCn1c(=O)sc2ccccc2c1=O,2,-6.3,26,-2.7,-9,-0.2,-1,-0.3
Cc1ccc2nc(-c3ccccc3)cc(C(=O)N3CCN(S(=O)(=O)c4c(C)noc4C)CC3)c2c1,.,0.5,.,.,-3,-1.2,-4,0.9
CCOC(=O)/C=C1\NC(=O)C(C)S1 (stereo not given),?,1.9,-9,3.6,2,0.2,-1,4.9
Cc1cc(C)n(CCOc2ccc(Cl)cc2Cl)n1,1,-2.2,-3,1.1,4,-0.3,1,-1.4
CN(Cc1ccccc1)CC(O)COc1ccc(CNCCc2cccnc2)cc1 (stereo not given),-1,-4.5,37,0.2,3,0.2,3,4.0
COc1cc(C)c(Cl)c(C)c1S(=O)(=O)NCc1ccc2c(c1)OCO2,1,1.6,3,4.5,-13,0.4,-3,4.3
CCn1c(CNC(=O)c2cccc(C)c2)nnc1SCC(=O)N1CCOCC1,1,2.3,-11,-3.6,0,0.4,3,1.3

# Single entries from the list.
# COc1cc(C)c(Cl)c(C)c1S(=O)(=O)NCc1ccc2c(c1)OCO2 in T cruzi inh: 3
# COc1ccc(N2CCN(C(=O)COC(=O)CNC(=O)c3ccc(C)cc3)CC2)cc1 in Bfl-1 A1 inh: -1.2
# CCn1c(CNC(=O)c2cccc(C)c2)nnc1SCC(=O)N1CCOCC1 in Beta2AR agonist: 3

# Part of the list above, bar-delimited:
molecule | Calb FLC | LANA-H2A inh | T cruzi inh | RanGTP-Imp inh | Beta apoptosis | Bfl-1 A1 inh | Beta2AR agonist | UCH37 inh
COc1ccc(NC(=S)NC(=O)/C=C/c2ccccc2)cc1 | 3 | -4.3 | -6 | 0.0 | 4 | 0.1 | -6 | 5.7
COc1ccc2ccccc2c1CNC(=O)CC1C(=O)NCCN1CC(C)(C)C (stereo not given) | -1 | -0.5 | -5 | 3.6 | -4 | -0.6 | -5 | 2.3
CCn1ncc(C(=O)Nc2cccc(Cl)c2)c1C | -37 | -1.2 | -17 | 1.0 | 5 | -4.7 | 8 | -24

# Continuation.
SMILES,Calb FLC,LANA-H2A inh,T cruzi inh,RanGTP-Imp inh,Beta apoptosis,Bfl-1 A1 inh,Beta2AR agonist,UCH37 inh
CC1c2[nH]c3ccccc3c2C[C@H]2C(=O)N(CCCN(C)C)CC(=O)N12 (stereo not given in full),-1,-0.9,6,-2.7,0,-0.1,-5,1.0
O=C(CN(Cc1ccccc1)C(=O)CCC(=O)Nc1ccccn1)NCCc1ccccc1,9,-7.0,-14,-0.1,-2,-0.3,10,3.3
CSCCC(NS(=O)(=O)c1ccccc1F)C(=O)NCC(c1ccco1)N(C)C (stereo not given),.,-1.6,.,.,-3,-0.3,0,0.4
COc1cc(/C=N/O)ccc1OCc1ccc([N+](=O)[O-])cc1,9,-1.9,-4,-0.2,-8,-3.2,-6,.
COc1ccc(N2CCN(C(=O)c3ccc(-n4nc(C)cc4C)cc3)CC2)cc1,-2,1.0,10,4.7,0,-0.3,-10,2.9
CC(Oc1cccc(Cl)c1)c1ccnc2nc(/N=C/N(C)C)nn12 (stereo not given),11,112*,2,4.9,-4,0.6,-12,.
CC(=O)Nc1ccc(S(=O)(=O)Nc2nccc(C)n2)cc1,10,2.5,-2,1.2,-2,0.3,-1,1.0
Cc1cccc(OCC(=O)Nc2ccncc2)c1C,32,0.8,-6,-1.9,.,-1.1,-1,2.1
CCc1ccc(N(CC(=O)NCc2ccc3c(c2)OCO3)C(=O)c2csnn2)cc1,-15,1.6,-8,0.3,-5,-0.5,0,-77
COC(=O)NC(=S)Nc1ccc(Oc2ccc(Cl)cc2)c(Cl)c1,59,0.9,74*,-1.1,.,-0.1,-12,-1.5
O=C(CC1S/C(=N/N=C/c2cccs2)NC1=O)Nc1ccccc1F (stereo not given),26,-8.2,-6,6.2,-5,0.2,3,.
Cn1c(=O)[nH]c(=O)c2c1nc(NC1CCCC1)n2Cc1ccccc1,-9,3.5,3,-2.8,-10,1.2,-4,3.5
COc1cccc(-c2noc(CCC(=O)Nc3cccnc3)n2)c1,1,2.3,4,-3.2,-4,0.6,-3,2.6
CCN(CC)Cc1ccc(NC(=O)c2sc3cc(Cl)ccc3c2Cl)cc1,103*,1.1,36,1.8,1,0.0,15,4.9
Cn1cc(/C=C/c2nc3ccccc3c(=O)n2-c2cccc([N+](=O)[O-])c2)c2ccccc21,-12,-0.7,13,-2.2,0,2.0,-7,12

# Shown as a hit in LANA-H2A inh (from the list above):
canonical_smiles | LANA-H2A inh | RanGTP-Imp inh | Beta2AR agonist | UCH37 inh
CC(Oc1cccc(Cl)c1)c1ccnc2nc(/N=C/N(C)C)nn12 (stereo not given) | 112* | 4.9 | -12 | .

# Next section
SMILES,Calb FLC,LANA-H2A inh,T cruzi inh,RanGTP-Imp inh,Beta apoptosis,Bfl-1 A1 inh,Beta2AR agonist,UCH37 inh
Cn1cc(C(=O)C(=O)N2CCc3ccccc32)c2ccccc21,6,5.3,-11,-2.1,-3,0.0,-9,6.4
CC(NC(=O)CCC(=O)NCc1ccc(F)cc1)c1ccccc1 (stereo not given),-1,3.1,0,4.4,-3,0.4,-11,5.4
O=C(O)CSc1nnc(CNc2ccccc2Cl)n1-c1ccccc1,0,-1.1,-4,0.8,3,-0.5,0,2.2
CCOC(=O)Cn1cnc2c(nnn2-c2ccc(OC)cc2)c1=O,-16,-5.0,-3,-0.4,-7,0.4,-6,3.2
Cc1c(C)c2c(OCC(=O)N[C@@H](CC(C)C)C(=O)O)cc3c(c2oc1=O)CCC(C)(C)O3,-3,3.1,-2,7.0,-5,1.9,-5,i
O=C(COC(=O)c1ccccn1)NNC(=O)c1ccc([N+](=O)[O-])cc1,-5,.,?,4.3,0,0.5,-5,1.9
O=C(Nc1nncs1)C12CC3CC(CC(Cl)(C3)C1)C2,-11,2.2,-16,2.2,-9,0.4,-16,1.7
COCCn1c(SCC(=O)NCCc2ccccc2)nc2c([nH]c3ccccc32)c1=O,.,3.3,-3,.,-1,-0.4,-1,-3.3
CC1CCN(Cc2c(C(=O)N/N=C/c3cccc(C(F)(F)F)c3)nnn2-c2nonc2N)CC1,8,-3.0,8,-2.7,10,-0.4,-5,.
CC1CN(C(=O)COC(=O)c2ccc(S(=O)(=O)N(C)C)cc2)CC(C)O1 (stereo not given),0,-4.6,-6,-0.5,-6,0.7,1,1.9
COc1ccc(/C=N/Nc2nc3ccccc3[nH]2)c(OC)c1OC,-3,-1.8,-5,-2.7,34,0.3,3,.
CN(C)c1ccc(C(C(=O)NC2CCCCC2)N(Cc2ccco2)C(=O)c2snc(C(N)=O)c2N)cc1 (stereo not given),-2,5.2,22,?,3,0.4,-5,68*
CCCCOc1ccc(C(=O)NCC(=O)NNC(=O)c2ccco2)cc1,.,4.4,.,.,-3,2.3,12,3.7
CC(C)Cc1cc(C(=O)N2CCN(c3ccc(F)cc3)CC2)no1,-4,-2.3,-17,?,-16,-0.6,10,-0.5
COc1ccc(OC)c(NC2=C(Cl)C(=O)N(Cc3ccccc3)C2=O)c1,8,-5.4,28,1.9,-9,-0.4,5,7.1

# Two entries from above, as tab-separated lines:
compound	Calb FLC	LANA-H2A inh	T cruzi inh	RanGTP-Imp inh	Beta apoptosis	Bfl-1 A1 inh	Beta2AR agonist	UCH37 inh
CC1CN(C(=O)COC(=O)c2ccc(S(=O)(=O)N(C)C)cc2)CC(C)O1 (stereo not given)	0	-4.6	-6	-0.5	-6	0.7	1	1.9
COc1ccc(/C=N/Nc2nc3ccccc3[nH]2)c(OC)c1OC	-3	-1.8	-5	-2.7	34	0.3	3	.

# Other structures follow.
SMILES,Calb FLC,LANA-H2A inh,T cruzi inh,RanGTP-Imp inh,Beta apoptosis,Bfl-1 A1 inh,Beta2AR agonist,UCH37 inh
CCc1cccc(NC(=O)C2CCCC2)c1,-6,0.5,-7,1.7,-1,-0.2,-4,-0.7
O=C1CN(C(=O)COC(=O)c2ccco2)c2ccccc2N1,.,-10,.,.,-3,0.7,4,4.6
O=[N+]([O-])c1cccc(-c2nnn(C34CC5CC(CC(C5)C3)C4)n2)c1,-7,-2.9,.,4.0,-1,0.4,-7,-0.1
CN1CCc2c(sc(NC(=O)c3ccc(S(=O)(=O)N4CCOCC4)cc3)c2C(N)=O)C1,-4,-2.7,4,19*,-4,0.1,7,13
Cc1ccccc1N=C(NO)c1cccnc1,2,0.5,-11,-0.6,-5,0.1,-3,-0.5
CCCc1nc2ccccc2c(=O)n1CC(=O)c1ccc(OC)cc1,2,-1.3,8,3.2,1,-3.3,-12,2.4
CCOc1ccccc1NC(=O)CCNC(=O)Cn1ccc2ccccc2c1=O,1,-8.7,-6,-6.6,-5,0.9,-2,0.7
C/C(=N\OC(=O)c1c(-c2ccccc2Cl)noc1C)c1ccncc1,-37,4.9,-4,-0.8,-11,0.3,2,.
CC1(C)CC(=O)C=C(NCCN2CCN(C(=S)NC3CCCCC3)CC2)C1,-5,6.4,.,0.5,-2,0.5,6,0.9
CCCCCn1nc(C)c2c(C)cc(=O)[nH]c21,-10,-2.4,-1,1.4,-3,-0.7,-7,3.5
Cc1c(CC(=O)NCCCCCC(=O)O)c(=O)oc2cc3occ(-c4ccccc4)c3cc12,-13,-0.3,-24,3.1,-7,1.0,-4,-21
Cc1ccc(C2N(c3cccc(Cl)c3)C(=O)C3CCCN32)o1 (stereo not given),1,-6.6,-15,4.6,-4,0.4,6,2.4

# Screening data deposited in PubChem BioAssay by several laboratories.
